Compound activity (PubChem BioAssay)
KCNQ2 inh = KCNQ2 channel blockers in CHO-K1 cells – cell-based, FluxOR thallium flux, B-score, primary screen (AID 2156) | B-score at 10 µM | hit rate 1.1% among 310,000 | O88943 | 20 min; hits give low values; only compounds with negative scores are shown here; some inactives read as strong as hits;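 active = fluorescence ratio B-score at most minus 3 library SDs, with starting brightness B-score within 2 library SDs, cut at about -5.5 in these data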
Target sequence (O88943 whole entry, looked up): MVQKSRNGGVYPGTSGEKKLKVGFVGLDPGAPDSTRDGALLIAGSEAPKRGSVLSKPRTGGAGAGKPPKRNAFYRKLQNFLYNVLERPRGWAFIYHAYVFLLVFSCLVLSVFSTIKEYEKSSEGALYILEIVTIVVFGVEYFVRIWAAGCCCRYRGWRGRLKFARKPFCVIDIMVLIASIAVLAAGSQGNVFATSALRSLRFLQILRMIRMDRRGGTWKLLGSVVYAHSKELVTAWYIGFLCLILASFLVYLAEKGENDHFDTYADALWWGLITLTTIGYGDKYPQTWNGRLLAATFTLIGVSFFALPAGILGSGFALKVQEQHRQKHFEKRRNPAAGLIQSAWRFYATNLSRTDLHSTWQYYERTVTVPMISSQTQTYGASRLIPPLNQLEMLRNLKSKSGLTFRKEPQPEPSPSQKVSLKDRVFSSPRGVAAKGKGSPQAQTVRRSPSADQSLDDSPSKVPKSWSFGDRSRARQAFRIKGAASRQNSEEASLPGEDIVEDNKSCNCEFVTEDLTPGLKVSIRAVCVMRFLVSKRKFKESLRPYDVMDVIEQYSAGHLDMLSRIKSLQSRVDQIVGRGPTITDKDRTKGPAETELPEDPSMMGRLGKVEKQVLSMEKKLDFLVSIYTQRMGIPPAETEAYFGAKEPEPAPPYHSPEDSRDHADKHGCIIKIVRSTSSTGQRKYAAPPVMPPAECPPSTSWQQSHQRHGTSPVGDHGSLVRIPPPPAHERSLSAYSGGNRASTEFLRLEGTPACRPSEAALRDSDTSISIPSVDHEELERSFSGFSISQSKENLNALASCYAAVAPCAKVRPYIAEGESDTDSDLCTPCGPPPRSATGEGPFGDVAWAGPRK
KCNQ2 inh baseline = second read-out of KCNQ2 inh, no call of its own (marks repeat the call); B-score; measured here: initial fluorescence intensity artifact check;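 brightness before thallium and not channel activity; 0 = typical well and far values either way flag optical interference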
Numbers without * were called inactive; i = inactive; ! = repeats disagree.

Each structure is followed by: KCNQ2 inh, KCNQ2 inh baseline
- O=C(C1CCCN(S(=O)(=O)c2cccc3nsnc23)C1)N1CCc2ccccc21 (stereo not drawn)
    i, -1.7
- COc1ccc(C(=O)Nc2ccc(S(=O)(=O)NC(C)C)cc2)cc1
    i, 0.86
- COc1cc(CN2CCc3ccccc3C2)cc([N+](=O)[O-])c1O
    i, 0.11
- Cn1cc(CCNC(=O)CCc2nnc(CCCCc3ccccc3)o2)cn1
    i, 1.3
- Cc1ccc(-n2c(CCc3ccccc3)n[nH]c2=S)cc1C
    i, -0.46
- Cc1ccc(-c2nc3cnccn3c2Nc2ccccc2)o1
    i, -0.5
- O=C1NC(c2ccc(Br)cc2)Nc2sc3c(c21)CCC3 (stereo not drawn)
    i, 1.2
- CC(c1ccccc1)C1CC(=O)N(c2ccc(C(=O)O)cc2)C1=O (stereo not drawn)
    i, 0.88
- COc1ccccc1OCc1ccc(C(=O)Nc2ccc(Cl)cn2)o1
    i, 1.6
- O=C(CSc1nc2[nH]ncc2c(=O)[nH]1)Nc1ccc(F)cc1
    i, 0.81
- Nc1c(N2CCCC2)cc(Cl)c2nonc12
    i, 0.92
- CCc1ccc(C2N(c3ccc(OC)cc3)C(=O)C3CCCN32)cc1 (stereo not drawn)
    i, -0.01
- COc1ccc(-c2cc(C(=O)N3CCc4ccccc4C3)no2)cc1OC
    i, 0.21
- COC(=O)c1cc(NC(=O)c2cccc([N+](=O)[O-])c2C)ccc1Cl
    i, -0.86
- O=C(CCCSc1nc2ccccc2[nH]1)Nc1nnc(-c2ccccc2)o1
    i, 0.6
- CCOc1ccc(NC(=O)COc2ccc(OC)cc2)cc1
    i, 0.61
- N#Cc1c(NC(=O)CN2CCOCC2)oc(-c2ccccc2)c1-c1ccccc1
    i, -0.02
- O=C(Cn1cc2c(n1)CCCC2)N1CCCc2ccccc21
    i, 0.02
- CCC(C)(C(=O)NC1CCCC1)N(Cc1ccco1)C(=O)c1ccc2c(c1)OCO2 (stereo not drawn)
    i, -0.79
- O=C(/C=C/c1cccs1)N1CCC2(CC1)Oc1ccc(Cl)cc1C(=O)C21CC(c2cccnc2)=NO1 (stereo not drawn)
    -6.8*, 0.13*
- COc1ccc(NC(=O)CSc2nc(N)c3cc4c(nc3n2)CC(C)(C)OC4)cc1
    i, -0.25
- CCOC(=O)N1CCN(C(=O)C(=O)Nc2sc3c(c2C(N)=O)CC(C)(C)OC3)CC1
    i, -1.1
- CC(Sc1nnc(-c2cccnc2)n1-c1ccccc1)C(=O)NCc1ccc2c(c1)OCO2 (stereo not drawn)
    i, 0.01
- Cc1ccc(-n2c(N)cc(=O)nc2SCC(=O)N2CCN(c3ccccc3)CC2)cc1
    i, 1.2
- CCOC(=O)C1CCN(C(=O)CN(c2ccc3c(c2)OCCO3)S(C)(=O)=O)CC1
    i, -1.6
- O=C(COC(=O)c1ccc(Cl)c(S(=O)(=O)N2CCOCC2)c1)NCc1ccco1
    i, 2.9
- Cc1ccc2oc(C(=O)Nc3ccc(S(=O)(=O)Nc4ncccn4)cc3)c(C)c2c1
    i, 1.4
- CCOc1ccc(CC(=O)Nc2c(C(=O)Nc3ccccc3)oc3ccccc23)cc1OCC
    i, -0.14
- CC1(C)Cc2[nH]c(=S)c(C#N)cc2CO1
    i, -1.6
- O=C(CSc1nc2[nH]ncc2c(=O)n1-c1ccccc1Br)NCc1ccco1
    i, -0.83

Entries of single compounds, quoted from the list. Values in the order: KCNQ2 inh | KCNQ2 inh baseline
Shown for O=C(COC(=O)c1ccc(Cl)c(S(=O)(=O)N2CCOCC2)c1)NCc1ccco1 = i | 2.9
Shown for O=C(/C=C/c1cccs1)N1CCC2(CC1)Oc1ccc(Cl)cc1C(=O)C21CC(c2cccnc2)=NO1 (stereo not drawn) = -6.8* | 0.13*
Shown for COC(=O)c1cc(NC(=O)c2cccc([N+](=O)[O-])c2C)ccc1Cl = i | -0.86

Back to the main list; the 6 compounds before the break are reprinted first.
Each structure is followed by: KCNQ2 inh, KCNQ2 inh baseline
- CCOC(=O)C1CCN(C(=O)CN(c2ccc3c(c2)OCCO3)S(C)(=O)=O)CC1
    i, -1.6
- O=C(COC(=O)c1ccc(Cl)c(S(=O)(=O)N2CCOCC2)c1)NCc1ccco1
    i, 2.9
- Cc1ccc2oc(C(=O)Nc3ccc(S(=O)(=O)Nc4ncccn4)cc3)c(C)c2c1
    i, 1.4
- CCOc1ccc(CC(=O)Nc2c(C(=O)Nc3ccccc3)oc3ccccc23)cc1OCC
    i, -0.14
- CC1(C)Cc2[nH]c(=S)c(C#N)cc2CO1
    i, -1.6
- O=C(CSc1nc2[nH]ncc2c(=O)n1-c1ccccc1Br)NCc1ccco1
    i, -0.83
- Clc1ccccc1C(c1nnnn1Cc1ccco1)N1CCN(Cc2ccco2)CC1 (stereo not drawn)
    i, -2.1
- O=[N+]([O-])c1cc(C(F)(F)F)ccc1NC1CCN(Cc2ccccc2)C1 (stereo not drawn)
    i, 0.73
- CC(=O)Nc1cccc(C(=O)OCC(=O)Nc2ccc(Cl)cn2)c1
    i, -0.01
- CC1=NN(c2nc3ccccc3s2)C(O)(C(F)(F)F)C1 (stereo not drawn)
    i, -2.6
- COC(=O)C1C(=O)NCC1c1ccc(C)cc1 (stereo not drawn)
    i, -2.5
- COc1ccccc1/C=C/CN1CCC(CO)(Cc2ccccc2)CC1
    i, 1.5
- O=C(NC1CCCCC1)c1cc2cc(Br)ccc2o1
    i, 0.04
- CN(CCOc1ccccc1)C(=O)C1CCC(=O)N(CCCN2CCCC2=O)C1 (stereo not drawn)
    i, 0.15
- COc1ccc(NC(=O)c2cnc(SC)nc2)cc1
    i, 0.43
- C/C(=N\NC(=O)Cc1ccc(Cl)cc1)c1ccccn1
    i, -0.09
- COc1ccc(S(=O)(=O)NCc2ccccn2)cc1NC(=O)c1ccccc1F
    i, 0.61
- CSc1cccc(NC(=O)CCn2c(=O)c3cccn3c3cccnc32)c1
    i, -0.22
- Cc1c(Cl)cn2c(=O)cc(CN3CCN(c4ccccc4)CC3)nc2c1Cl
    i, -0.38
- COc1ccc(/C=C/C(=O)NC(=S)Nc2ccc(Br)cn2)cc1
    i, 0.62
- COc1ccc(CC(C)Nc2ccccc2F)cc1 (stereo not drawn)
    i, 0.66
- Cc1nn(CCCNC(=O)C2CCCO2)cc1Br (stereo not drawn)
    i, 0.03
- COc1ccc(S(=O)(=O)N2CC3CCCN3c3ccc(C(F)(F)F)cc32)cc1 (stereo not drawn)
    i, -0.92
- CN(C)CCNC(=O)c1cc2ccccc2oc1=O
    i, -0.09
- COc1ccc(OC)c(Nc2ncnc3c2cnn3-c2ccccc2)c1
    i, -1.1
- Fc1ccc([C@@H]2CCNC[C@H]2COc2ccc3c(c2)OCO3)cc1
    -6*!, 2.4*!
- COc1ccc(CCn2c(-c3ccncc3)n[nH]c2=S)cc1OC
    i, 1.1
- COc1ccc2nc(NC(=O)C3CCCN(S(=O)(=O)c4c(C)noc4C)C3)sc2c1 (stereo not drawn)
    i, -0.16
- CCCCC(=O)NC(=S)NNC(=O)CC
    i, -1.6
- COc1ccc(-c2nnc(SCCc3ccccc3)n2N)cc1
    i, 0.78
- CCN(CCNC(=O)CN1CCN(Cc2ccc(Cl)cc2)C1=O)c1ccccc1
    i, 1.3
- O=C(COc1ccc(Cl)cc1)NCCCNC(=O)c1cccnc1
    i, -0.13
- Cc1cc(F)ccc1S(=O)(=O)N1CCCOC1CNC(=O)C(=O)NCCCN1CCOCC1 (stereo not drawn)
    i, -0.26
- Nc1nc(Cl)nc2c1ncn2[C@@H]1O[C@H](CO)[C@@H](O)[C@H]1O
    i, -1.3
- COC(=O)c1ccc(C2NC(=O)c3ccccc3O2)cc1 (stereo not drawn)
    i, -0.11
- Cc1oc(CC(C)C)c(CN)c1C(=O)O
    i, 0.59

(further entries)
Each structure is followed by: KCNQ2 inh, KCNQ2 inh baseline
- COc1ccc(CCNC(=O)CC2Nc3ccccc3NC2=O)cc1OC (stereo not drawn)
    i, 0.35
- S=C(NCCc1ccccc1)N1CCN(C2CCCCC2)CC1
    i, -0.17
- CCCn1c2ccccc2c2cnn(CC(=O)O)c(=O)c21
    i, -2.5
- O=C(c1cccc(C(=O)N2CCN(c3ccccc3F)CC2)c1)N1CCN(c2ccccc2F)CC1
    i, -0.46
- COc1ccc(S(=O)(=O)Nc2cc(C)ccc2OC)cc1C
    i, -1.8
- CC(C)c1ccc(/C=C2\SC(=S)N(CC(=O)NCCCN3CCOCC3)C2=O)cc1
    i, -2.6
- O=C(Nc1cccnc1)c1ccccc1O
    i, -2.1
- CC(=O)N1c2ccc(S(=O)(=O)N3CCC(C(=O)N4CCN(c5cccc(C(F)(F)F)c5)CC4)CC3)cc2CC1C (stereo not drawn)
    i, -0.68
- Cc1ccccc1NC(=O)CN1CCc2ccccc2C1
    i, -1.6
- S=c1[nH]nc(-c2n[nH]c3c2CCC3)n1/N=C/C=C/c1ccco1
    i, 1.6
- COCCOC(=O)C1=C(C)NC2=C(C(=O)CCC2)C1c1cc2c(cc1Br)OCO2 (stereo not drawn)
    i, -0.88
- Cc1ccc(S(=O)(=O)N(C)c2ccc(OCC(=O)Nc3nc4ccccc4s3)cc2)cc1
    i, 2.2
- COc1ccc(Cl)cc1N(C(=O)Nc1cccc(Cl)c1)C1=NCC(C)S1 (stereo not drawn)
    i, 0.47
- CC(C)c1ccccc1NC(=O)COC(=O)COc1ccccc1[N+](=O)[O-]
    i, 0.05
- NC(=O)c1ccccc1OCC(=O)O
    i, -0.33
- CCc1c(C)nc(N)n2c(SCC(=O)Nc3ccccc3)nnc12
    i, -2.8
- CCN1C(=O)CSC1=Nc1ccc(C(=O)O)cc1
    i, 3.1
- N#Cc1ccc(NC(=O)Cn2cnc([N+](=O)[O-])c2)cc1
    i, -0.99
- Cc1ccc(/C=C/C(=O)OCC(=O)N(CC(C)C)c2c(N)n(Cc3ccccc3)c(=O)[nH]c2=O)o1
    i, -0.42
- Cc1ccc(C(=O)N/C(=C\c2ccc(-c3ccc(Br)cc3)o2)C(=O)NCCCN(C)C)cc1
    -8.2*, -1.2*
- CCOC(=O)c1cc([N+](=O)[O-])sc1NC(=O)c1ccc(S(=O)(=O)N2CC3(C)CC2CC(C)(C)C3)cc1 (stereo not drawn)
    i, -1.1
- CCn1c(SCC(=O)OC(C)C)nnc1-c1ccccc1
    i, 0.2
- CN(C)S(=O)(=O)c1ccc(N/C=C(\[N+](=O)[O-])S(=O)(=O)c2ccccc2)cc1
    i, -0.94
- COc1ccc(Nc2nc(N3CCCCC3)c3ccccc3n2)cc1
    i, -0.86
- Cc1nnc(NC(=O)Cc2cccs2)s1
    i, 2.5
- O=C(/C=C/c1ccccc1)CC(=O)c1ccccc1O
    i, 1
- COc1cc2c(cc1OC)C(C(=O)NCc1cccnc1)C(c1cccnc1)N(C)C2=O (stereo not drawn)
    i, 2.4
- CSc1cccc(NC(=O)COc2cccc3ccccc23)c1
    i, 0.71
- Cn1c(CNC(=O)CNC(=O)c2ccccc2)cc(=O)n(C)c1=O
    i, -0.12
- COc1ccc2c(C)c(C)c(=O)oc2c1OC
    i, 0.86

Additional structures.
Each structure is followed by: KCNQ2 inh, KCNQ2 inh baseline
- O=C1C2CCCN2C(=O)N1CCCCN1CCN(c2ccccc2)CC1 (stereo not drawn)
    i, -0.1
- COc1cccc(C2c3[nH]c4ccccc4c3C[C@H]3C(=O)N(CCCOC(C)C)CC(=O)N23)c1 (stereo partly drawn)
    i, 0.71
- O=C(NCCN1CCN(Cc2ccccc2)CC1)C1c2ccccc2C(=O)N2CCc3ccccc3C12 (stereo not drawn)
    i, -0.92
- COc1ccc(CCN2C(=NC(C)=O)SC3CS(=O)(=O)CC32)cc1OC (stereo not drawn)
    i, 0.48
- CC1=C([N+](=O)[O-])C(c2cccc(Br)c2)C2=C(N1)c1ccccc1C2=O (stereo not drawn)
    i, 0.7
- CCNC(=O)C(=O)Nc1cc2c3c(c1)CCC(=O)N3CCC2
    i, 1.6
- Cc1ccnc(NC(=O)c2ccc(COc3c(F)c(F)cc(F)c3F)o2)c1
    i, 0.35
- COc1ccc(CN(C)Cc2cc(=O)n3ccsc3n2)c(OC)c1OC
    i, 1.3
- Cc1cccc(CN2CCCC(C(=O)c3ccc4c5c(cccc35)CC4)C2)n1 (stereo not drawn)
    i, -0.56
- CCOC(=O)c1nn(-c2ccccc2)c(=O)cc1OCC(=O)Nc1cc(C)ccc1C
    i, -0.7
- COc1cccc(C2c3c(-c4ccccc4)n[nH]c3C(=O)N2c2ccc(C(=O)O)cc2)c1 (stereo not drawn)
    i, -4
- Cc1ccc(S(=O)(=O)NCC(=O)N2CCc3ccccc3C2)cc1
    i, 0.84
- CCc1cc2c(=O)n(-c3ccccc3)cnc2s1
    i, 0.95
- CS(=O)(=O)N(CC(=O)NC1CCCC1)Cc1ccc(F)cc1
    i, -1
- Fc1ccc(COc2ccc(Br)cc2CNCc2ccncc2)cc1
    i, -0.01
- CCOC(=O)c1c(N2C(=O)C3C4C=CC(O4)C3C2=O)sc2c1CCCC2 (stereo not drawn)
    i, -0.05
- COCCOC(=O)c1c(C)nc(SCC(=O)Nc2cccc3ccccc23)c(C#N)c1-c1ccco1
    i, -1.3
- NC(=S)NNC(=O)Nc1ccc(Cl)c(Cl)c1
    i, -0.88
- Cc1ccc(-n2c(C)cc(C3=NNC(=NC4CC4)SC3)c2C)cc1C
    i, -1.2
- O=C(C[N+]1(CC#Cc2ccccc2)CCOCC1)c1ccc(Cl)cc1
    i, -1.2
- COC(=O)c1ccc(CSc2nc3ccccc3o2)cc1
    i, 0.66
- COc1ccc(NC(=O)C(c2ccccc2)N2CCN(c3ccccn3)CC2)cc1Cl (stereo not drawn)
    -6.3*, 1.6*
- Oc1c(Br)cc(Br)cc1CNn1cnnc1
    i, -1.9
- C=C1CCN([C@@H](CC(C)C)C(=O)NCc2ccc(OC)cc2)S(=O)(=O)c2ccccc21
    i, -0.38
- COc1cc(/C=N/NC(=O)c2cc(O)cc(O)c2)ccc1OC(=O)c1ccccc1
    i, -0.97
- C=CCn1c(=S)[nH]c2cc(C(=O)Nc3ccc(OC)c(OC)c3)ccc2c1=O
    i, -1.4
- COc1ccc(-n2nnnc2SCC(=O)Nc2ccc3c(c2)OCCO3)c(OC)c1
    i, 0.15

Not all compounds are listed; rates above refer to the full screens.
